Compound activity: PubChem, several laboratories
UCH37 inh – inhibitors of human deubiquitinating enzyme UCH37; Q9Y5K5; actives 0.33% (n = 330,000); purified proteasome/UCH37, Ub-AMC cleavage fluorescence; inhibition, % (no concentration beside the values);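 active means mean of two replicates above 20%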;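 further: 0% = compound-free wells with enzyme and 100% = wells lacking proteasome; stock transfer was 100 nL into about 20 µL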
Target sequence (Q9Y5K5 whole entry, looked up): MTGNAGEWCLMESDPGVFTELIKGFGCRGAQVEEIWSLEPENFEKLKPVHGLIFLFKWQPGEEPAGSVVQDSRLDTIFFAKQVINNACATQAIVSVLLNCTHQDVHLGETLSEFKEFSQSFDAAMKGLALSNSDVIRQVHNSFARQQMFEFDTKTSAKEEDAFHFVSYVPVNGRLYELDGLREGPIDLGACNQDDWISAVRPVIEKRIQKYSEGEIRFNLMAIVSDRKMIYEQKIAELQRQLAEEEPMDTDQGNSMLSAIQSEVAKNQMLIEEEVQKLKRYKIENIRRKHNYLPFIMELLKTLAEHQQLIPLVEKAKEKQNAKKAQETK
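system = Proteasome-associated human UCH37 deubiquitinase | amount = 0.15 nM proteasome as dispensed | medium = pH 7.4 Tris-HCl (50 mM) with ovalbumin, ATP-MgCl2, DTT | incubation = 30 min preincubation with enzyme, 25 min cleavage at room temperature | detection = AMC fluorescence 355/460 nm | read-out basis = percent inhibition | controls = no-proteasome and no-compound wells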
A1 inh – inhibitors of the anti-apoptotic protein A1, read as caspase activation; MEF A1-2A-BIM cells, Caspase-Glo 3/7 luminescence, 3 h; percent of clofoctol response, vehicle zero; caspase activation, % (test concentration not listed); actives 0.066% (n = 330,000);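 active means over half of replicate activation scores above 10%, or exactly half above 10 with the replicate mean above 10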;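 further: wells of about 30 µL received 50 nL stock; many hits fall short of the cut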
T cruzi inh – T. cruzi replication inhibition | T. cruzi beta-gal in NIH3T3, luminescence, 90 h | inhibition, % (no concentration beside the values) | actives 1.4% (n = 300,000) | AID 1885;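 active means mean inhibition across valid replicates above about 55%, limit read from the data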;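 further: signal also drops with host cell toxicity which is not excluded here; 0% = plate median of DMSO wells and 100% = zero luminescence signal; higher percent means less beta-gal luminescence so fewer parasites; stock transfer was 50 nL into about 50 µL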
rRNA inh HTS – inhibitors of bacterial rRNA selective over humanized ribosomes; AID 720706; E. coli WT GFP vs humanized-ribosome RFP mutants, fluorescence, 24 h; active compounds read low; DMSO median 0, no signal -100; actives 1.6% (n = 350,000); GFP signal change (wild-type ribosome), % (no concentration beside the values);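 active means significant combined selectivity score with lowered wild-type GFP, culture density cut under 30%, mutant RFP and density less affected; inactive means any of these conditions unmet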; further: one replicate is shown; some compounds called inactive have numbers as strong as hits
Ecoli growth – blocks Escherichia coli growth | AID 1053175 | OD600, 23 h; active compounds read low | OD600 absorbance (test concentration not listed) | actives 0.21% (n = 330,000);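 active means OD600 absorbance below the run mean of sample wells minus 3.6 SD, in any replicate, cut at about 0.56 in these data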;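 further: stock transfer was 300 nL into about 60 µL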
FGF22 binding – shifts melting point of recombinant human FGF22 | calls only at 9.99 µM | actives 1.5% (n = 340,000) | Q9HCT0 | recombinant FGF22 thermal shift, SYPRO orange fluorescence; percent of sucrose octasulfate shift, DMSO zero;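 active means melting point raised past a set limit in the mean and every replicate; three in four hits are not shown here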
Target sequence (Q9HCT0 whole entry, looked up): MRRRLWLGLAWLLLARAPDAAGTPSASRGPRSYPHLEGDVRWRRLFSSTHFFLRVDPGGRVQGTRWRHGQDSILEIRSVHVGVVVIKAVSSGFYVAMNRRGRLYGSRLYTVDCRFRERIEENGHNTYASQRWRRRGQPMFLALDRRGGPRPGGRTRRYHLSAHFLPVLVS
Beta cell apopt – beta cell apoptosis inhibition. AID 435005. protection from apoptosis, % (no concentration beside the values). actives 0.8% (n = 300,000). INS-1E cytokine-induced death, ATP luminescence, 48 h; percent of positive-control rescue, neutral wells zero;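 active means all replicates at 75% or more, or half of them and the mean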;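 further: 0% = cytokine-treated negative control wells and 100% = positive control rescue; higher means more ATP so stronger rescue from cytokine killing; wells of about 40 µL received 100 nL stock; the first replicate is given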
AF4-AF9 inh – inhibitors of human MLL-AF4/AF9 interaction; AlphaScreen, biotin-AF4 peptide binding to FLAG-AF9; P42568; AID 651704; inhibition, % at 10 µM; actives 0.47% (n = 350,000);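 active means every replicate reaching a set inhibition limit, whatever the replicate mean, cut at about 25% in these data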;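 further: 0% = plate neutral control median and 100% = total signal loss; the record names both 10 and 1 µM as test concentration; the first replicate is given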
Target sequence (P42568 whole entry, looked up): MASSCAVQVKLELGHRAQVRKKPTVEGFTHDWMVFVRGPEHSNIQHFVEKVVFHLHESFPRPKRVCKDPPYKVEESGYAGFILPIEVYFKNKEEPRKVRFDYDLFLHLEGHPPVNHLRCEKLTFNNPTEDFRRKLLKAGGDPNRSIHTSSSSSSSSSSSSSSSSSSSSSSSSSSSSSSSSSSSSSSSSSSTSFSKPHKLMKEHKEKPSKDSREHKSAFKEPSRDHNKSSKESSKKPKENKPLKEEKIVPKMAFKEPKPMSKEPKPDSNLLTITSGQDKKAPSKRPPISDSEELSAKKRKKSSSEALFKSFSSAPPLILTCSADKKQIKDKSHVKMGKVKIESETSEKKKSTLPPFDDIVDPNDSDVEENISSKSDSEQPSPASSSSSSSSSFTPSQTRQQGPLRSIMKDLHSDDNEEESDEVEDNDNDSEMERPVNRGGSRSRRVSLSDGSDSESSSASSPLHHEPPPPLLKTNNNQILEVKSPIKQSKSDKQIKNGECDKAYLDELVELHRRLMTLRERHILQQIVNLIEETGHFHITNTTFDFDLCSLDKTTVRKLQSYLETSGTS
rRNA inh HTS OD600 – further read-out of rRNA inh HTS, marked with its call; OD600 change, %; measured here: OD600 growth;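 optical density of the mix in the first replicate; 0 = DMSO median and -100 = no signal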
rRNA inh HTS RFP – recorded beside rRNA inh HTS, whose call it bears; RFP signal change, %; measured here: RFP humanized mutant strains;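 first replicate; 0 = DMSO median and -100 = no signal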
An asterisk follows results filed as active; i = inactive; / = not tested or not shown.

SMILES | UCH37 inh | A1 inh | T cruzi inh | rRNA inh HTS | rRNA inh HTS OD600 | rRNA inh HTS RFP | Ecoli growth | FGF22 binding | Beta cell apopt | AF4-AF9 inh
O=C(Cn1c(=O)n(-c2ccccc2)c(=O)c2sccc21)NCc1ccccc1 | 5.1 | 0.0 | -2 | 8 | 9 | -4.2 | 0.68 | i | 2 | 5.8
COC(=O)c1c(O)c2ccccc2[nH]c1=O | 2.5 | 0.9 | -16 | / | / | / | 0.7 | / | -2 | /
COn1c(-n2nc(C)cc2C)nc2ccccc2c1=O | 5.8 | 0.6 | -24 | / | / | / | 0.75 | / | -2 | /
CC(C)Sc1nnc(-c2c[nH]c3ccccc23)n1C | 2.8 | / | -1 | -14 | -12 | 1.0 | 0.65 | i | -5 | -5.0
COC(=O)C1=C(C(=O)OC)C2(OC1c1cccc(F)c1)C(=O)c1ccccc1C2=O (centres undefined) | -15 | -0.1 | -9 | / | / | / | 0.65 | / | 2 | /
COc1ccc(/C=N/Nc2nnc(C)n2N)cc1OC | / | 0.5 | -20 | 10 | 9 | -2.5 | / | i | 8 | -1.4
Cc1cc(NC(=O)C2CCCN(S(=O)(=O)c3cnc[nH]3)C2)ccc1Br (centres undefined) | 9.5 | 0.3 | 9 | -16 | -33 | -2.7 | 0.74 | i | 2 | 1.9
COc1ccc(-c2[nH]ncc2CN2CCCN(c3ccccc3)CC2)c(F)c1 | 0.9 | 0.0 | -5 | 0 | -5 | 1.0 | 0.7 | / | -3 | 16
Cn1c(SCc2c(F)cccc2Cl)nnc1-c1cccs1 | 1.9 | -2.5 | -18 | / | / | / | 0.62 | / | / | /
O=C(Cc1cn2ccsc2n1)Nc1ccccn1 | -5.3 | 0.2 | -4 | 3 | 8 | -2.3 | 0.75 | / | -1 | /
CCCNC(=O)Cn1c2ccccc2c2nc(=O)cc(C)n21 | / | -0.5 | -5 | -1 | 3 | 0.1 | / | i | -6 | 5.3
O=C(NCc1ccccc1F)C1CCCN1C(=O)Nc1ccc(Cl)cc1 (centres undefined) | 4.5 | -0.1 | -1 | 0 | 1 | 0.2 | 0.7 | i | -1 | 1.1
O=C(O)c1cc(O)ccc1N=Nc1ccccc1 | 18 | -2.2 | 5 | 4 | 8 | -3.4 | 0.7 | i | -6 | -2.8
COc1ccc(C2Nc3cccc4cccc(c34)N2)cc1Br | / | -0.9 | -11 | 9 | 14 | -6.0 | / | i | 7 | -0.2
O=C(O)c1cccc(NC2=C(N3CCOCC3)C(=O)c3ccccc3C2=O)c1 | 28* | -0.2 | -2 | 11 | -2 | -8.0 | 0.69 | i | -3 | -0.7
O=Cc1cn(-c2ccccc2)nc1-c1ccc(F)cc1 | 7.1 | 0.0 | -17 | 22 | 6 | -0.6 | 0.69 | i | / | -2.5
NC(=O)CSc1nc2cc(Cl)ccc2c(=O)n1C1CCCCC1 | 2.6 | -0.4 | -19 | 2 | 1 | -0.9 | 0.67 | i | 3 | -0.4
CCOC(=O)C1CCN(c2c(C(=O)c3ccccc3)cnc3ccc(Cl)cc23)CC1 | 2.9 | 1.4 | 17 | 2 | 4 | -3.1 | 0.73 | i | -4 | 7.9
Cc1ccc(CN2CCCN(Cc3cc(C)ccc3C)S2(=O)=O)cc1 | 6.9 | -1.1 | 1 | 0 | -1 | 6.4 | 0.66 | i | / | 1.1
C=CCN=C(C)C1=C(O)C(C)OC1=O (centres undefined) | 0.5 | 0.7 | -9 | / | / | / | 0.68 | / | -2 | /
O=C(N/N=C/c1ccc(Br)s1)c1cccs1 | / | -4.0 | -4 | 7 | 12 | 2.4 | / | i | 10 | 6.1
CCOC(=O)c1c(C)[nH]c(C(=O)COC(=O)CSCC(=O)N(CC)CC)c1C | 0.8 | -0.1 | 3 | / | / | / | 0.7 | / | 1 | /
OCCNCCCOc1cc(Cl)ccc1Cl | 0.6 | 0.0 | 2 | 7 | 3 | 2.5 | 0.64 | i | 3 | -1.4
CC(=O)c1ccc(N2CCN(S(=O)(=O)c3cn(C)c(C)n3)CC2)cc1 | 4.3 | 0.0 | -4 | 16 | 14 | -1.3 | 0.74 | i | -3 | -2.0
N=C1/C(=C\c2ccc(SCc3ccccc3)o2)C(=O)N=C2SC=NN12 | 3.4 | -0.1 | -3 | 5 | 7 | 0.8 | 0.68 | i | 5 | -1.8
O=[N+]([O-])c1cccc(NC(=S)NCc2ccncc2)c1 | 2.1 | 0.0 | 23 | 5 | 7 | -0.4 | 0.68 | i | -9 | -6.7
Cn1c(CCNC(=O)c2ccco2)nc2cc(NS(=O)(=O)c3ccccc3)ccc21 | 0.2 | 0.7 | -13 | / | / | / | 0.76 | / | 7 | /
Cc1cc(C)nc(NS(=O)(=O)c2ccc(Br)cc2)n1 | 1.1 | -0.4 | -2 | / | / | / | 0.71 | / | / | /
CCN(CC)CCOc1nnc(-c2ccc(C)cc2)c2ccccc12 | 5.8 | 0.5 | 21 | / | / | / | 0.7 | / | / | /
Nc1cc(C(=O)O)ccc1N1CCCCC1 | -4.5 | 1.9 | -5 | / | / | / | 0.76 | / | -3 | /
CCOCCCNC(=S)NC1CC2CCC(C1)N2Cc1ccccc1 (centres undefined) | 2.8 | 0.6 | -32 | 23 | 13 | -0.2 | 0.68 | / | / | 1.7
Cc1ccc2[nH]cc(CCNC(=O)c3ccc4c(c3)OCO4)c2c1 | 2.1 | 0.1 | -4 | 6 | 1 | 3.4 | 0.7 | i | -6 | -5.8
CCN(CC)C(=O)C(C)OC(=O)c1ccc(O)cc1 (centres undefined) | 1.3 | 2.5 | -10 | / | / | / | 0.66 | / | -2 | /
CC(SC(C)C(=O)NN=Cc1ccc(F)cc1)C(=O)NN=Cc1ccc(F)cc1 (centres undefined) | 3.4 | / | / | 6 | 15 | 1.9 | 0.71 | i | / | -1.5
COc1cc2c(cc1NC(=O)CN(C)Cc1cccc(OC)c1OC)oc1ccccc12 | -13 | -0.1 | 43 | / | / | / | 0.68 | / | -8 | /
CCOC(=O)c1cnn2c(N)c(C#N)cnc12 | -14 | 1.6 | -10 | 14 | 8 | -4.5 | 0.66 | / | -7 | /
COc1ccc2cc([C@H](C)C(=O)N(C)Cc3ccccc3N3CCCC3)ccc2c1 | -2.0 | 0.0 | 45 | 0 | -11 | 2.7 | 0.71 | i | -10 | 7.7
CCOC(=O)C1CCN(S(=O)(=O)c2ccc(Cl)cc2OC)CC1 | 2.2 | 0.6 | -16 | / | / | / | 0.74 | / | -11 | /
COc1cccc(C(=O)NN2CC(O)=C(c3nc4ccccc4n3C)C2=N)c1 | 1.8 | 0.1 | -7 | / | / | / | 0.68 | / | -9 | /
CC(=O)NC(Cc1cc(C)ccc1C)C(=O)N1CCN(C(=O)Nc2ccc(C(C)=O)cc2)CC1 (centres undefined) | 4.3 | -0.4 | -22 | / | / | / | 0.66 | / | -9 | /

Three records drawn at random from those above, as already listed:
SMILES | UCH37 inh | A1 inh | T cruzi inh | rRNA inh HTS | rRNA inh HTS OD600 | rRNA inh HTS RFP | Ecoli growth | FGF22 binding | Beta cell apopt | AF4-AF9 inh
CC(SC(C)C(=O)NN=Cc1ccc(F)cc1)C(=O)NN=Cc1ccc(F)cc1 (centres undefined) | 3.4 | / | / | 6 | 15 | 1.9 | 0.71 | i | / | -1.5
CCN(CC)C(=O)C(C)OC(=O)c1ccc(O)cc1 (centres undefined) | 1.3 | 2.5 | -10 | / | / | / | 0.66 | / | -2 | /
CCOC(=O)C1CCN(S(=O)(=O)c2ccc(Cl)cc2OC)CC1 | 2.2 | 0.6 | -16 | / | / | / | 0.74 | / | -11 | /

Further compounds follow.
SMILES | UCH37 inh | A1 inh | T cruzi inh | rRNA inh HTS | rRNA inh HTS OD600 | rRNA inh HTS RFP | Ecoli growth | FGF22 binding | Beta cell apopt | AF4-AF9 inh
O=C(O)c1ccc(-n2cccc2/C=N\NC(=O)c2cc3cc(Br)ccc3o2)cc1 | / | 1.9 | -2 | 19 | 5 | 1.8 | / | i | -2 | -17
Cc1nc(SCC(=O)Nc2nc3ccccc3s2)n[nH]1 | -1.5 | -0.2 | -6 | -18 | -15 | 1.5 | 0.63 | i | 2 | -2.0
C=CCNc1oc(C2CCCC2)nc1C#N | 1.0 | -0.4 | / | 7 | 9 | 6.3 | 0.69 | i | -10 | -1.3
O=C(Nc1ccccc1)c1ccc(S(=O)(=O)Nc2cccc(O)c2)cc1 | 6.1 | -1.3 | 4 | 0 | 1 | -0.1 | 0.68 | i | / | 1.1
Cc1ccc(-c2nn(CCC(=O)NCC3CCCO3)c(=O)c3ccccc23)cc1 (centres undefined) | 4.1 | -0.5 | -26 | / | / | / | 0.69 | / | 5 | /
COc1ccc(NS(=O)(=O)c2ccc(Oc3c(C#N)cccc3C#N)cc2)cc1 | 1.9 | -0.6 | 4 | -33* | -6.7* | -3.9* | 0.64 | i | 72 | -0.3
CC(C)C(C(=O)NCC1CCCO1)N(Cc1ccco1)C(=O)CNS(=O)(=O)c1ccc(F)cc1 (centres undefined) | 1.6 | 0.6 | 15 | / | / | / | 0.73 | / | -3 | /
CC1(C)CC(=O)c2c(-c3cccnc3)n[nH]c2C1 | 0.8 | 0.3 | 3 | 15 | 18 | 0.6 | 0.65 | / | -1 | /
Cc1ccccc1C1NS(=O)(=O)N=C1N (centres undefined) | 3.8 | 0.6 | 5 | / | / | / | 0.7 | / | / | /
COC(=O)[C@@H]1CC(O)CN1C(=O)C12CC3CC(CC(C3)C1)C2 (some centres undefined) | 1.4 | -0.3 | -6 | -2 | 7 | 11 | 0.67 | i | -4 | 2.2
C=CCn1c(N)nc2ccccc21 | 1.0 | 0.1 | 5 | / | / | / | 0.76 | / | -3 | /
O=c1oc(-c2cccs2)nc2scc(-c3cccs3)c12 | -14 | -3.7 | -11 | / | / | / | 0.73 | / | 3 | /
Cc1ccc(-n2c(O)c(C=Nc3ccccc3-c3n[nH]c(=S)[nH]c3=O)c3ccccc3c2=O)cc1C | -7.0 | / | 22 | -38* | -21* | 11* | 0.67 | i | / | 5.5
CCN(CC)S(=O)(=O)c1cc(NS(=O)(=O)c2cccc(C(=O)O)c2)ccc1C | 3.1 | 0.6 | -18 | 6 | 7 | -0.1 | 0.63 | / | -4 | -1.4
COC(=O)c1cc2nc(-c3ccccc3)cc(C)n2n1 | -76 | -0.3 | -8 | / | / | / | 0.78 | / | -4 | /
COC(=O)c1ccccc1NS(=O)(=O)c1ccc(NC(C)=O)cc1 | 0.2 | -1.1 | -5 | -8 | -16 | -1.7 | 0.7 | i | 0 | 0.1
CN(Cc1cnccn1)C(=O)CC1C(=O)NCCN1Cc1c(F)cccc1Cl (centres undefined) | 1.1 | 0.2 | -4 | 9 | 6 | 1.3 | 0.71 | i | 1 | -0.5
N#C/C(=C\c1cc2ccccc2nc1N1CCCCC1)C(N)=O | 1.4 | 0.2 | / | -25 | -28 | -8.9 | 0.68 | i | -2 | 2.0
COc1ccc(/C=C/C(=O)c2sc(-c3ccccc3)nc2C)cc1 | 2.8 | 1.1 | -6 | / | / | / | 0.65 | / | -1 | /

Part of the list above, showing only T cruzi inh, FGF22 binding and rRNA inh HTS RFP:
molecule	T cruzi inh	FGF22 binding	rRNA inh HTS RFP
C=CCn1c(N)nc2ccccc21	5	/	/
O=c1oc(-c2cccs2)nc2scc(-c3cccs3)c12	-11	/	/

Not all compounds are listed; count on the stated rates, not on these rows.
